Screens as filed in PubChem BioAssay.
WNV protease inh: WNV NS2B-NS3 proteinase inhibition | P06935 | WNV NS2B-NS3 protease, fluorogenic substrate Ex360/Em465; stronger effect = lower value | z-score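 (tested at a level between 10 and 100 µM)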 | 65,000 tested, 0.18% active;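 active means z-score at -3 or under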;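 further: score is relative to mean and spread of the compound wells of a plate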
Target sequence (P06935 1371-1501 limits assumed): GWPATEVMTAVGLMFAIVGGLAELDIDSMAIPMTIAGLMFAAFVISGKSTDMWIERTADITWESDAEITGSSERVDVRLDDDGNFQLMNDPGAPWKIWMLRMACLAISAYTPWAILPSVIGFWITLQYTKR
Target sequence (P06935 1502-1679 limits assumed): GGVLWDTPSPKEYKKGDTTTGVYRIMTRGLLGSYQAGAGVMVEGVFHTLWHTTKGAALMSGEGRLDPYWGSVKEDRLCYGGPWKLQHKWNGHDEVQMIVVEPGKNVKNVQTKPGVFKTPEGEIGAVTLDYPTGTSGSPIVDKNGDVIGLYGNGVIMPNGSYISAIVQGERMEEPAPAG
MT1-MMP promoter: inhibitors of MT1-MMP promoter transcription, cell-based, luciferase reporter, luminescence (AID 618) | MT1-MMP promoter luciferase reporter cells, luminescence | calls from a first round at 10 µM; hits with a dose series show EC50 in µM | 87,000 tested, 0.62% active;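 active means over half of the reporter light lost at 10 µM or EC50 under 50 µM; inactive means the rest and hits that failed the dose series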;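 further: actives suppress MT1-MMP promoter-driven transcription so potencies describe inhibitors; HT1080 fibrosarcoma cells; overnight exposure; toxic or luciferase-blocking compounds were not removed from the actives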
Hsc70: small molecules displacing fluorescent ligand from Hsc70 – biochemical, fluorescence polarization, primary screen (AID 568) | Hsc70 fluorescence polarization, probe displacement; higher % means a stronger effect; strong numbers were not always called active | displacement, % at 20 µM, or IC50 in µM where a hit was titrated | 83,000 tested, under 10 active;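 active means displacement above 50% without optical interference and an IC50 on retest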;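 further: ATPase domain with a fluorescein-tagged ATP probe; 0% = vehicle and 100% = excess ADP; read after one hour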
Starred values were filed as active, the others as inactive; i = inactive; / = not tested or not shown.

SMILES	WNV protease inh	MT1-MMP promoter	Hsc70
CCN(C(=O)COc1cc(=O)n(CC)c2ccccc12)c1cccc(Cl)c1	-0.34	i	-0.5%
Cc1c(C)n(C(=O)CSc2ncn[nH]2)c2ccccc12	0.43	i	5.0%
CS(=O)(=O)N1CCC(C(=O)Nc2ccc(F)cc2F)CC1	1.37	i	5.6%
Cc1cccc(NCN2C(=O)c3ccncc3C2=O)n1	-0.7	i	-3.1%
CCCn1c(NC(=O)C2COc3ccccc3O2)nc2ccccc21 (stereo not given)	0.23	i	5.2%
CC1(C)Cc2c(C#N)c(SCCC#N)nc(N3CCOCC3)c2CS1	-0.04	i	4.9%
O=C(CSc1nc2scc(-c3ccco3)c2c(=O)n1-c1ccccc1)NCC1CCCO1 (stereo not given)	1.81	i	-5.5%
Cc1cc(Nc2ccc(F)cc2F)n2ncnc2n1	-0.92	i	2.1%
Cc1oc(-c2ccccc2Cl)nc1CSCC(=O)NC1CC1	-0.45	i	1.2%
CSc1oc(-c2ccccc2)nc1S(=O)(=O)c1ccc(F)cc1	-0.47	i	-1.8%
O=c1[nH]c(SCc2ccccc2Cl)nc2c1CCC2	1.68	i	-3.8%
Cc1cc(C)n(-c2nc(NCCCO)c3c4c(sc3n2)CCCC4)n1	0.22	i	-5.1%
C=CCSc1nc(O)c(CC)c(=O)n1C(C)CC (stereo not given)	0.78	i	-5.0%
O=C(CS(=O)(=O)Cc1ccccc1)N1CCN(Cc2ccc3c(c2)OCO3)CC1	-1.09	i	1.8%
CN(c1ccc(C(=O)N2CCN(c3ccc(F)cc3)CC2)cc1)S(C)(=O)=O	0.95	i	3.2%
COc1ccc(Cl)cc1NC(=O)c1ccccc1C	/	i	-0.2%
CCOP(=O)(OCC)c1nc(/C=C/c2ccccc2)oc1NCc1ccc(OC)cc1	/	i	-0.8%
COc1cccc(-c2csc3nc[nH]c(=O)c23)c1	-0.34	i	10.8%
CCN1c2ccccc2-c2nc3ccccc3n2C1c1ccco1 (stereo not given)	/	i	-3.4%
C=C(Br)Cn1c(CCC)nc2ccccc21	1.34	i	1.2%
Cc1[nH]n(C(N)=S)c(=O)c1N=Nc1ccc(S(=O)(=O)N2CCCCCC2)cc1	/	i	-1.5%
COc1cc(OC)c(NC(=O)CCc2nc(-c3ccc(C)cc3)no2)cc1Cl	1.47	i	0.7%
COc1ccc(C2(C(=O)N3CCOCC3)CCCC2)cc1	/	i	-0.1%
Cc1oc(-c2ccccc2)nc1C(=O)Nc1nccs1	1.15	i	-1.6%
N#CC1=C(N)OC2=C(C(=O)CCC2)C1Cc1ccccc1 (stereo not given)	-0.08	i	-6.6%

Of the compounds above, two contain a furan ring, fused or not.
SMILES	WNV protease inh	MT1-MMP promoter	Hsc70
O=C(CSc1nc2scc(-c3ccco3)c2c(=O)n1-c1ccccc1)NCC1CCCO1 (stereo not given)	1.81	i	-5.5%
CCN1c2ccccc2-c2nc3ccccc3n2C1c1ccco1 (stereo not given)	/	i	-3.4%

Following part
SMILES	WNV protease inh	MT1-MMP promoter	Hsc70
COC(=O)CN(c1ccc(OC)cc1)S(=O)(=O)c1ccc(OC)c(OC)c1	-0.12	i	8.2%
O=C1NCCN1CCNS(=O)(=O)c1ccc(F)cc1	/	i	2.4%
COc1ccc(CNc2nn[nH]n2)cc1OC	/	i	5.1%
O=C(NCc1ccc2c(c1)OCO2)C1CCN(S(=O)(=O)c2cccs2)CC1	-1.23	i	2.8%
CCn1c(=O)n(CC(=O)N(C)Cc2ccccc2)c(=O)c2ccccc21	-0.32	i	0.9%
COc1c(C)cc(S(=O)(=O)NC2CC(C)(C)NC(C)(C)C2)c(C)c1C	/	i	0.5%
O=C1C2C3C=CC(C3=C(c3ccccc3)c3ccccc3)C2C(=O)N1Cc1ccccc1 (stereo not given)	/	i	-2.6%
CN(C)C(=O)Oc1ccc[n+](C)c1	-0.13	i	-4.8%
COc1cccc(NC(=O)c2oc3ccccc3c2NC(C)=O)c1	-1.35	i	-2.2%
Cc1cccc(N2CCN(C(=O)C3CCCCC3)CC2)c1C	1.04	i	2.3%
COC(=O)CSc1ccc2nnc(-c3ccc(OC)c(OC)c3)n2n1	-1.74	i	1.6%
Nc1ncnc2nc(SCCc3ccccc3)[nH]c12	-1.37	i	5.4%
COc1ccccc1NC(=O)C1=C(C)Nc2nnnn2C1c1cc(Br)ccc1OC (stereo not given)	-0.76	i	-3.0%
Cc1c(CN(C)C)c2c(n1Cc1ccccc1)C(=O)c1ccc(Br)cc1-2	/	i	6.5%
COC(=O)c1cc(COC(=O)c2cccnc2SC)oc1C	-0.88	i	-1.4%
CCC(NC(=O)Nn1cnnc1)(C(F)(F)F)C(F)(F)F	-0.53	i	0.8%
Cc1csc(NC(=O)CCn2c(=O)oc3ccccc32)n1	0.07	i	-3.0%
Cc1cc(NC(=O)CCC(=O)N(CC(=O)NC2CCCC2)Cc2ccc(F)cc2)no1	0.17	i	8.9%
C=CCn1c(-c2ccccc2)nc2nc3ccccc3nc21	0.05	i	1.2%
O=C(CSc1nc(-c2ccc(F)cc2)cs1)NC(=O)NCc1ccco1	-1.07	i	-1.3%
COc1ccc(NC(=O)c2ccc(COc3ccccc3OC)o2)cc1OC	/	i	0.8%
Cc1ccccc1S(=O)(=O)NC1OC(=O)C(Cl)=C1Cl (stereo not given)	-1.07	i	46.6%
CC(C)CSc1nnc(N)s1	/	i	3.6%
O=C(c1ccccc1-c1nc(-c2ccccc2)no1)N1CCCC1	-0.05	i	4.9%
O=C(COc1ccc(Cl)cc1Br)N1CCN(c2ccccc2)CC1	-0.36	i	1.1%

Structures from the list above that contain an NH in an aromatic ring (six):
SMILES	WNV protease inh	MT1-MMP promoter	Hsc70
Cc1c(C)n(C(=O)CSc2ncn[nH]2)c2ccccc12	0.43	i	5.0%
O=c1[nH]c(SCc2ccccc2Cl)nc2c1CCC2	1.68	i	-3.8%
COc1cccc(-c2csc3nc[nH]c(=O)c23)c1	-0.34	i	10.8%
Cc1[nH]n(C(N)=S)c(=O)c1N=Nc1ccc(S(=O)(=O)N2CCCCCC2)cc1	/	i	-1.5%
COc1ccc(CNc2nn[nH]n2)cc1OC	/	i	5.1%
Nc1ncnc2nc(SCCc3ccccc3)[nH]c12	-1.37	i	5.4%

Continuation.
SMILES	WNV protease inh	MT1-MMP promoter	Hsc70
Cc1cccc(N(C)c2cc(C)nc3ncnn23)c1	-0.95	i	0.2%
Cc1ccc(C)c(NC(=O)C2CC=CCC2C(=O)O)c1 (stereo not given)	0.44	i	-0.6%
C=CCN(C1CCCCC1)S(=O)(=O)c1ccc2c(c1)oc(=O)n2C	0.42	i	-2.9%
CCN(CC)c1c(-c2ccccc2)c2cc(C)ccc2[nH]c1=O	-1.01	i	4.0%
COc1cccc(CNC(=O)C2CCN(S(=O)(=O)N3CC(C)CC(C)C3)CC2)c1 (stereo not given)	-0.83	i	1.8%
C=CCn1c(Cc2cccs2)nnc1SCC(=O)c1ccc2ccccc2c1	/	i	-0.7%
O=C(Nc1ccccc1)c1ccc(S(=O)(=O)N2CCCC2)cc1	2.21	i	0.2%
O=S(=O)(c1ccc2c(c1)OCO2)N1CCN(c2nnnn2-c2ccccc2)CC1	0.21	i	5.3%
O=C(c1ccco1)c1n[nH]nc1-c1ccccc1	-1.47	i	-9.4%
C=CCNS(=O)(=O)c1cccc2cc(C(=O)O)c(O)cc12	1.22	i	4.8%
CC(C)=CCSc1nnc([C@@H](NC(=O)OC(C)(C)C)C(C)C)o1	1.62	i	0.2%
O=C1C(=O)N(CCCN2CCOCC2)C(c2ccccn2)/C1=C(\O)c1ccc2c(c1)OCCO2 (stereo not given)	0.59	i	-5.2%
Cc1occc1C(=O)N1CCN(Cc2ccccc2)CC1	-1.01	i	-0.5%
CCOC(=O)N1CCC(N2C(=O)c3ccccc3C2Nc2cc(C(=O)OC)cc(C(=O)OC)c2)CC1 (stereo not given)	-1.98	i	5.0%
N#Cc1c(C#N)c(-c2ccccc2)n(-c2ccc(C(=O)O)cc2)c1N	1.85	i	-5.6%
Cc1cc(=O)oc(C)c1C(=O)N1CCCc2ccccc21	/	i	2.6%
COC(=O)c1c(NC(=O)c2ccc(C)o2)sc2c1CCCCC2	0.17	i	-8.1%
CC1CCC(NC(=O)c2cc3c(=O)n(C)c4ccccc4c3n2C)CC1 (stereo not given)	1.97	i	-0.1%
COCCCNC(=O)CC(NS(=O)(=O)c1ccc(C)cc1)c1ccco1 (stereo not given)	-2.22	i	-1.6%
Cc1nc2ncnn2c(C)c1CCC(=O)NCc1ccc2c(c1)OCO2	-0.65	i	4.9%
COc1ccccc1NC(=O)NCc1ccc2c(c1)OCO2	-0.06	i	0.9%
CCn1c(SCC(=O)NC(C)C)nnc1-c1cccs1	/	i	5.4%
NC(=O)C1(S(=O)(=O)c2ccccc2)CCCCC1	-0.4	i	2.0%
CCOc1ccc(N2C(=O)C(Cl)=C(Nc3ccccc3O)C2=O)cc1	/	i	0.9%
CC(C)CSc1nc(N2CCOCC2)c2c(c1C#N)CC(C)(C)SC2	-0.24	i	0.4%
SMILES	WNV protease inh	MT1-MMP promoter	Hsc70
O=C(CCC(=O)N1CCN(c2ccccn2)CC1)Nc1nnc(C2CCCCC2)s1	-1.91	i	-2.5%
N#Cc1c(N)oc(-c2ccco2)c1-c1ccco1	-0.78	i	-1.5%
COc1ccccc1OCc1ccc(C(=O)NCc2cccnc2)o1	/	i	-1.1%
COc1ccc(Nc2nnc(C)c3ccccc23)cc1C(N)=O	-0.79	i	-0.7%
O=C(Nc1ccc(S(=O)(=O)N2CCOCC2)cc1)C1COc2ccccc2O1 (stereo not given)	-0.39	i	1.9%
COc1ccc(NC(=O)c2cc(-c3ccc(C)o3)nc3ccccc23)cc1OC	0.91	i	8.8%
CCCNC(=O)NC(=O)CSc1nnc(-c2ccncc2)n1CC	-0.62	i	5.7%
O=S(=O)(c1ccc2oc3ccccc3c2c1)N1CCOCC1	/	i	2.2%
COc1ccc(Nc2ncnc3nc[nH]c23)cc1OC	-1.37	i	3.5%
COc1cccc(CNc2ccc(S(N)(=O)=O)cc2)c1OC	0.18	i	1.0%
O=C(c1ccccc1)c1ccc(N2CCOCC2)c(NC(=O)c2ccco2)c1	-0.99	i	-3.0%
CCNc1nc(SC(C)C(=O)Nc2ccccc2)nc(N2CCOCC2)n1 (stereo not given)	-1.13	i	0.5%
Cc1cc(C)n2ncc(C(=O)NCc3cccnc3)c2n1	0.91	i	0.2%
COc1cc(C(=O)Nc2ccc3c(c2)C(=O)N(CCC(=O)O)C3=O)cc(OC)c1OC	0.2	i	2.0%
O=C(O)c1cc(NCc2ccccc2)ccc1N1CCOCC1	/	i	-6.3%
COC(=O)c1ccc(N2C(=O)CC(N3CCOCC3)C2=O)cc1 (stereo not given)	1.11	i	1.0%
Cc1ccccc1NC(=O)Cn1cccc1	-0.35	i	-0.7%
CN(Cc1ccccc1)C(=O)COc1cc(=O)n(C)c2ccccc12	/	i	8.7%
COc1ccccc1NC(=S)NNC(=O)c1ccccc1	/	i	2.0%
COc1cc(C(=O)NCCN2CCCC2)cc(OC)c1OC	/	i	-0.2%
CCCCOC(=O)C1[C@H]2C(=O)N(c3ccccc3CC)C[C@]23C=C[C@H]1O3 (stereo not given in full)	-0.12	i	-3.9%
O=C(NC(NCCCN1CCOCC1)(C(F)(F)F)C(F)(F)F)C1CCCCC1	-0.38	i	-4.6%
Nc1ccc(-c2nc3ccc(N)cc3o2)cc1	11.1	14µM*	2.3%
Cn1c(C(=O)NCCN2CCc3ccccc3C2)cc2c(=O)[nH]c3ccccc3c21	-1.36	i	-0.4%
CCn1c(=O)cc(C(=O)OC)sc1=Nc1ccc(F)c(F)c1	0.08	i	4.8%

Overlap with the part before: 2 entries; new compounds follow.
SMILES	WNV protease inh	MT1-MMP promoter	Hsc70
Cn1c(C(=O)NCCN2CCc3ccccc3C2)cc2c(=O)[nH]c3ccccc3c21	-1.36	i	-0.4%
CCn1c(=O)cc(C(=O)OC)sc1=Nc1ccc(F)c(F)c1	0.08	i	4.8%
CN(Cc1c(F)cccc1Cl)c1nnnn1-c1ccccc1	-0.13	i	3.8%
Cn1c(C(=O)NCCN2CCOCC2)cc2c(=O)n(C)c3ccccc3c21	-0.57	i	4.8%
CCc1nc(N)c(C#N)c(-c2ccco2)c1C	/	i	3.2%
Cc1cccc(N2CCN(S(=O)(=O)c3ccc4c(c3)CCC(=O)N4)CC2C)c1 (stereo not given)	-0.29	i	-6.0%
CC1(C)CN2C(=S)N(c3ccccc3)C(c3ccccc3)N2C1 (stereo not given)	/	i	3.5%
Cc1cc(NC(=O)CSc2nc3ccsc3c(=O)n2CCCCC(=O)O)no1	-0.44	i	2.4%
CC1Oc2ccccc2OC1C(=O)Nc1ccccn1 (stereo not given)	/	i	-0.6%
COc1ccccc1-c1noc(CCC(=O)Nc2cc(C(F)(F)F)ccc2Cl)n1	-0.58	i	-6.6%
O=C(NC1CCCCC1)C1CCN(S(=O)(=O)c2cccs2)CC1	1.8	i	-0.5%
O=C(Cc1cccc2ccccc12)NCC1CCCO1 (stereo not given)	/	i	2.7%
COc1cccc2[nH]c3c(N4CCC(C)CC4)ncnc3c12	0.65	i	-0.5%
COc1cccc(C2=NOC(C(=O)Nc3cc(OC)c(OC)c(OC)c3)C2)c1 (stereo not given)	-0.11	i	0.6%
CCN(C(=O)COc1cc(=O)n(C)c2ccccc12)c1cccc(Cl)c1	-0.7	i	-6.4%
Cc1cc(=O)oc2cc(OCC3CC(c4ccccc4)=NO3)ccc12 (stereo not given)	/	i	9.3%
C=C(C)CSc1nnc2n(N)c(=O)c3ccccc3n12	/	i	2.6%
Cc1c(C(=O)OCC(=O)N2c3ccccc3CC2C)oc2ccccc12 (stereo not given)	-0.48	i	-0.6%
